D2 PAM: Beta-Arrestin HTS for Positive Allosteric Modulators of the Human D2 Dopamine Receptor: Potentiators; D(2) dopamine receptor (Homo sapiens), P14416; 0.23% of 360,000 active; DiscoveRx D2 beta-arrestin cells, luminescence, 90 min; 100% = 57 uM dopamine signal; potentiation, % (no concentration beside the values); AID 624464, 2012; active = potentiation of 50% or more; inconclusive = 30% to 50%; inactive = 30% or less;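 further: compound concentration not given in the record; tested on top of an EC20 dose of dopamine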
Target sequence (P14416 whole entry, looked up): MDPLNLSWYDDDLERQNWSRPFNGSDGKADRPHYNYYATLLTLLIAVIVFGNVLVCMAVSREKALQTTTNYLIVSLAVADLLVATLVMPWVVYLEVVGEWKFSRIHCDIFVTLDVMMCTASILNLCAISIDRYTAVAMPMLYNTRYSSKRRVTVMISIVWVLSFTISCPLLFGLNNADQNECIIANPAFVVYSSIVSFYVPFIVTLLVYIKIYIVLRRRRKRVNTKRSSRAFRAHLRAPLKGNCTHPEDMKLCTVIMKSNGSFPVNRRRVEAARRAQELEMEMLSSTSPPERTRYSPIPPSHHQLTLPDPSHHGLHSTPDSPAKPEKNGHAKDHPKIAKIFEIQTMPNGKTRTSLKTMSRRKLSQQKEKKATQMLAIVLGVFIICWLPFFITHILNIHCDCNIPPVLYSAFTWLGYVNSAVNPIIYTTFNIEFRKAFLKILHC
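D2 cells co-treated with compound plus 50 nM dopamine (EC20) for 90 min at 37 deg C to detect potentiation. Beta-arrestin recruitment was read as enzyme-fragment luminescence after 1 h at ambient temperature. Full response was set by 57 uM dopamine.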
CtBP-E1A inh: qHTS Assay for Inhibitors of the CtBP/E1A Interaction. CtBP / adenovirus E1A interaction (AlphaScreen). AlphaScreen GST-E1A/His-CtBP binding, 1536-well; active compounds read low; control for the full effect not named in the record. activity change, % (no concentration beside the values). 0.49% of 340,000 active; in the data active means activity change below about -65%; inconclusive means about -30% to -65%; inactive means above about -30%; further: on the % scale 0 is the no-effect control and ±100 the full control effect
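Steps: dispense buffer (Tris pH 8.0, NaCl 300 mM, TCEP 1 mM, BSA, Tween 20); add 5X protein mix (GST-E1A, His-CtBP, 125 nM each); pin 23 nL compound; 2 h at 37 °C, dark; add 5X beads (50 ug/mL); 1 h; read.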
gsp agonist: qHTS for Agonist of gsp, the Etiologic Mutation Responsible for Fibrous Dysplasia/McCune-Albright Syndrome: qHTS; gsp mutant cells, cAMP HTRF, 30 min; control for the full effect not named in the record; Potency, µM (series often up to 76.9 µM), inactives show top-dose activation (cAMP increase), most hits filed as activators; 0.13% of 340,000 active; active = well fitted activation curve with a large enough effect; inconclusive = small, poorly fitted or top-dose-only effect, or another doubt; inactive = no such curve, though single readings can be large or run the other way; cell line not stated here;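 further: phosphodiesterase inhibitor Ro 20-1724 added with compounds to block cAMP breakdown; potency means the concentration at half of the fitted maximal effect; nearly all actives have a fitted effect of over 60% in size; about a fifth of the inactives were tested at one dose only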
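Cells stably selected in G418 were plated at 2000/well, grown 16-24 hr, then given compounds in DMSO with the PDE inhibitor […] (300 uM solution added) for 30 min at 37C; cAMP was read by HTRF.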
Six1-Eya2 blk: qHTS Assay for Inhibitors of the Six1/Eya2 Interaction; Homeobox protein SIX1 (Homo sapiens) + Protein phosphatase EYA2 (Homo sapiens), …; AlphaScreen GST-Six1/His-Eya2 binding, biochemical; active compounds read low; control for the full effect not named in the record; activity change, % (test concentration not listed); 0.56% of 360,000 active; AID 651725, 2012; in the data active = activity change below about -65%; inconclusive = about -30% to -65%; inactive = above about -30%; further: on the % scale 0 is the no-effect control and ±100 the full control effect
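Six1/Eya2 binding was read as AlphaScreen signal after compounds were pinned into GST-Six1 plus His-tagged Eya2 (5X stock 250/500 nM) in pH 8.0 Tris/NaCl/TCEP buffer, beads added, then incubated 1 h, 37 C, dark.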
D2 ag: Beta-Arrestin HTS for Positive Allosteric Modulators of the Human D2 Dopamine Receptor: Agonists; 0.084% of 360,000 active; activation, % (concentration not given with the values); D(2) dopamine receptor (Homo sapiens), P14416; DiscoveRx PathHunter D2 beta-arrestin, luminescence, 90 min; 100% = 57 uM dopamine signal; AID 624465, 2012; in the data active = activation above about 40%; inconclusive = about 15% to 40%; inactive = below about 15%; further: compound concentration not given in the record; the text of the record calls up to 30% inactive
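DiscoveRx PathHunter D2 beta-arrestin cells (2,100/well) attached overnight, then compound-stimulated 90 min at 37 C in HBSS/10 mM HEPES/0.1% Tween-20 buffer; beta-galactosidase complementation read by luminescence after 1 h at ambient temperature. Dopamine 57 uM final (EC100) as control.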
gsp antag: qHTS for Antagonists of gsp, the Etiologic Mutation Responsible for Fibrous Dysplasia/McCune-Albright Syndrome: qHTS | gsp-mutant cells, cAMP HTRF, 30 min; control for the full effect not named in the record | Potency, µM (titrated, usually from 76.9 µM), for inactives: at the highest dose activity change, negative = inhibition, hits mostly inhibitors | 0.4% of 340,000 active | AID 624288, 2012; active = falling curve of any shape with a large fitted effect; inconclusive = falling curve, mostly with a smaller effect; inactive = flat or rising curve; cell line not stated here;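 further: intracellular cAMP measured with PDE inhibitor Ro 20-1724 present during compound exposure; potency means the concentration at half of the fitted maximal effect; on the % scale 0 is the no-effect control and ±100 the full control effect; nearly all actives have a fitted effect of over 65% in size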
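G418-selected cells were plated in DMEM/10% FBS for 16-24 h at 37C, then treated with compounds plus the PDE inhibitor […] (300 uM solution added) for 30 min at 37C. Intracellular cAMP was measured by HTRF after 30 min lysis at room temperature.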
* hit, by the source's call; u = inconclusive; x = no result given; & = joins results of further samples; [ ] = dose if it differs, or a comment.

Each structure is followed by: gsp antag, D2 ag, CtBP-E1A inh, D2 PAM, gsp agonist, Six1-Eya2 blk
> Cc1ccc(S(=O)(=O)NCCC(=O)Nc2ccc(C)c(Cl)c2)cc1C
 : -16%, -1.1, -1, -18, -3%, 2
> CN(C)CCCNC(=O)CC(c1ccc(F)cc1)c1ccco1 (stereo not drawn)
 : 8%, 2.1, 4, -7, -29%, 0
> CC(C)N(Cc1ccccc1)S(=O)(=O)c1cccs1
 : 3%, -0.8, x, -17, u, 10
> COc1ccc(C)cc1N(C(=O)c1ccccc1F)c1nc2ccccc2s1
 : 5%, -3.6, 1, -8, 1%[15.4 µM], 1
> CC1CC(C)CN(c2ccc(S(=O)(=O)N3CCOCC3)cc2)C1 (stereo not drawn)
 : -1%, -6.6, 1, -11, 1%, -1
> COC(=O)c1cc2ccccn2c2c(C(=O)OC)c(C(=O)OC)cc1-2
 : -5%, 1.1, u, -21, -7%, u
> Cc1ccc(C(=O)OCC(=O)N(CC(C)C)c2c(N)n(Cc3ccccc3)c(=O)[nH]c2=O)o1
 : 13%, -2.8, 2, 5, -38%[inhibitor], 6
> Cc1cc(C)c2c(-n3cccc3)c(NC(=O)OCc3ccccc3)sc2n1
 : u, -4.6, -5, 9, 9%, -8
> CC(=O)NCN1CCN(CNC(C)=O)CC1
 : 12%, -0.7, 6, -1, u, 2
> Cc1ccc(C(=O)Nc2cccc(NC(=O)c3cccnc3)c2)cc1
 : 9%, -2.1, 2, -2, 8%, -4
> CCOc1ccc(OCC(=O)OCn2c(SC)nnc(C)c2=O)cc1
 : -16%, 0.2, 6, 0, -23%, 11
> CN(CC(=O)Nc1ccc(Cl)cc1)C(=O)CNC(=O)c1cccs1
 : 7%, -2.0, x, -7, -11%, 6
> Cc1cc(NC(=O)c2ccc(-c3ccccc3[N+](=O)[O-])o2)no1
 : -4%, -0.2, -6, -6, -1%, -5
> CN(C)c1ccc(/C=C(\NC(=O)c2ccccc2)C(=O)NCCN2CCOCC2)cc1
 : u, 1.0, 2, -7, 0%, -4
> Cc1nnc2n(c1=O)N=C(c1ccc(Cl)cc1)CS2
 : -3%, -5.1, 0, 4, 21%, 1
> Cc1cc(N2C(=O)C(O)=C(C(=O)c3ccco3)C2c2ccc(Cl)cc2)no1 (stereo not drawn)
 : 5%, 0.0, x, -2, 11µM*, -6
> Cc1ccc(Nc2nc3ccccc3c(=O)s2)cc1C
 : 7%, -2.2, 4, -11, 8%, 10
> Cn1c(NC(=O)c2ccc(F)cc2)c(-c2cccs2)c(=O)c2ccccc21
 : -2%, 3.9, -6, -10, 5%[15.4 µM], -10
> Nn1c(Cc2cccc3ccccc23)nnc1SCc1ccccc1Cl
 : -4%, 1.4, -6, -10, -45%, 0
> Cc1ccc(CN2CCN(Cc3ccco3)CC2)cc1
 : 4%, -0.2, x, -68, -1%, 2
> COc1ccc(NC(=O)C[C@H]2C(=O)N(c3ccc(OC)cc3)C[C@@H]2C)cc1
 : x, -0.6, -6, -4, -14%, 12
> O=S(=O)(Nc1ccc(Br)cc1)N1CCOCC1
 : 15%, -4.8, -1, -30, -2%, 1
> O=C(Nc1cccc(OC(F)(F)F)c1)c1cccc2c(-c3cccnc3)coc12
 : x, 10, -12, -16, x, -16
> Cn1c(=O)c2[nH]c(Cc3ccsc3)nc2n(C)c1=O
 : 7%, -0.7, 1, -18, -2%[15.4 µM], 2
> CCOC(=O)Cc1csc(NC(=O)CCCC(=O)O)n1
 : 14%, -5.0, 6, -4, 2%[15.4 µM], -11
> CC12CC(NC(=O)N1Cc1ccccc1)c1ccccc1O2 (stereo not drawn)
 : 10%, 1.0, -2, -4, 1%, 2
> O=C(c1ccc2c(c1)C(=O)N(Cc1ccco1)C2O)N1CCOCC1 (stereo not drawn)
 : -6%, -3.2, -23, -7, -53%[inhibitor], 9
> O=C(O)/C=C/C(=O)Nc1ccccc1-c1ccccc1NC(=O)/C=C/C(=O)O
 : 10%, -3.5, -23, -7, -7%[15.4 µM], -20
> Nc1cnn(Cc2ccc(F)cc2)c1
 : 16%, -19, -3, 5, -26%, 7
> COc1cc(C(C)=O)ccc1OCC(=O)Nc1cc(S(=O)(=O)N2CCOCC2)ccc1N1CCCC1
 : -6%, 0.9, x, 3, 1%, 6
> O=S(=O)(NCc1cc(-c2ccc(Cl)cc2)no1)c1ccc(Cl)cc1
 : -15%, -1.2, 4, 0, 5%, 5
> C[C@]12CCC(=O)C=C1CC[C@@H]1[C@@H]2[C@@H](O)C[C@@]2(C)[C@H]1CC[C@]2(O)C(=O)CO
 : -10%&11%, -4.0&-5.6, -18&-19, 1&-13, x, 2&23
> Cc1cc(C)nc(NC2=NCC(=O)N2c2ccc(F)c(Cl)c2)n1
 : -2%, -3.0, 0, -9, 10%, 17
> CCC(C)(C)NC(=O)C1CCN(c2nc(C)cc(C)n2)CC1
 : -3%, 1.0, -4, -2, 14%, -3
> CCOC(=O)c1ccc(NC(=O)Nc2ccccn2)cc1
 : 2%, -0.7, 10, 0, 0%[15.4 µM], 1
> COc1cc(NC(=O)c2cc(C)on2)cc(C(=O)Nc2cccc(C(F)(F)F)c2)c1
 : -16%, 1.2&2.0, 3&-1, -7&-2, -18%, 2&2
> OCCC1CN(Cc2cn[nH]c2C2CCCCC2)CCN1C1CCCC1 (stereo not drawn)
 : 10%, 1.0, 5, -9, 31%, -2
> CC(C)c1ccccc1OCCNS(C)(=O)=O
 : 2%, 1.0, 1, -8, -14%, 1
> CCN1C(=O)[C@H]2[C@@H](c3ccc(-c4ccccc4)cc3)N[C@@](C)(C(=O)OC)[C@H]2C1=O
 : -1%, -4.5, 1, -8, u, -3
> CCOc1ccc(CCNC(=O)CN2C(=O)NC3(CCCC3)C2=O)cc1OCC
 : -5%, -0.5, 2, -9, -14%, 1
> N=c1c2c(ncn1CCN1CCOCC1)Oc1ccc3ccccc3c1C2c1ccccc1 (stereo not drawn)
 : -5%, -1.9, -2, -14, 18%, 8
> C=CCN1C(C(=O)c2ccccc2)=C(OC(=O)COc2ccccc2)c2ccccc2S1(=O)=O
 : -8%, -5.3, 6, -19, 2%, 16
> CCCN1Cc2cccc(C(N)=O)c2C1=O
 : -10%, -1.0, 4, -11, 18%, -7
> O=C(NNc1nc(-c2ccccc2)cs1)c1cccs1
 : -7%, -3.7, 0, -11, -14%, 3
> COc1cc(NC(=S)NCc2ccco2)c(OC)cc1Cl
 : 3%, 5.4, 0, -6, 27%, -1
> O=C(Nc1ccc(S(=O)(=O)N2CCOCC2)cc1)c1ccc([N+](=O)[O-])cc1Cl
 : 11%, 3.9, -14, 7, 29%, -4
> COc1ccc2[nH]c(=O)c(CN(Cc3cccs3)S(=O)(=O)c3cccc4nsnc34)cc2c1
 : -7%, -2.4, 2, 6, 2%, 1
> CCCCOc1ccc(CSC(=N)N)cc1Cl
 : -1%, -20, 27, -20, -3%[15.4 µM], 47
> CCOC(=O)c1[nH]c(C)c(C(=O)N2CCN(c3ccc(F)cc3)CC2)c1C
 : -24%, -1.7, 43, -12, 10%, 9
> O=[N+]([O-])c1nn(-c2ccccc2)[n+]([O-])c1N1CCN(c2ccccc2)CC1
 : 12%, 5.5, -1, -2, -3%[15.4 µM], 1
> CCCCn1c(=NC(=O)c2ccco2)c(C(=O)OCC)cc2c(=O)n3cccc(C)c3nc21
 : -5%, -2.8, -13, -3, 30%, -7
> O=C(COC(=O)/C=C/c1cc(Br)ccc1F)NC1CC1
 : -1%, -1.2, -18, 1, -27%, -3
> O=C(CSc1nnc(Cn2c(=O)sc3ccccc32)n1-c1ccccc1)NCC1CCCO1 (stereo not drawn)
 : 2%, -4.2, 3, -1, 6%, -5
> O=C(OCc1nc(-c2ccccc2)oc1COC(=O)c1ccco1)c1ccco1
 : -9%, 2.0, 9, -2, -4%, -6
> CC(C)Oc1ccc(C(=O)NNC(=O)c2ccccc2C(=O)O)cc1
 : -5%, -5.1, x, -4, u, -3
> COc1ccc(C(C)(O)c2nc(-c3cccc(O)c3)cs2)cc1 (stereo not drawn)
 : x, 4.0, -3, 2, x, -3
> Clc1ccccc1-c1nc2ccccc2c2nc3ccccc3n12
 : -9%, -6.4, -17, 1, -6%, 14
> CC(=O)n1cc([C@@H]2C=C(C(=O)Nc3ccccc3)O[C@H](OCCCCO)C2)c2ccccc21
 : -14%, 4.8, -24, -8, x, 6
> O=C(CCN1C(=O)/C(=C\c2cccs2)SC1=S)Nc1ccc(C(=O)O)cc1
 : -14%, -1.3, -24, -4, u, -4
> O=C(Nc1cc(Sc2nc3ccccc3s2)cc([N+](=O)[O-])c1)c1cccc(F)c1F
 : 7%, 0.7, -15, 3, 17%, -21

The list continues:
Each structure is followed by: gsp antag, D2 ag, CtBP-E1A inh, D2 PAM, gsp agonist, Six1-Eya2 blk
> O=C(Cn1cc(S(=O)(=O)N2CCCC2)c(S(=O)(=O)N2CCCC2)c1)NCc1ccco1
 : 18%, -4.3, 2, -6, 27%, 1
> CCOC(=O)C(C(=O)c1ccccc1)C1CC(C)NC(=S)N1 (stereo not drawn)
 : 11%, -1.7, -12, -11, -12%, 5
> CCCCn1nc(C(=O)OCC(=O)Nc2sccc2C(N)=O)c2ccccc2c1=O
 : -15%, 9.6, -8, 10, 2%, -10
> CCOc1ccc(CNC(=O)CN2C(=O)C(c3ccccc3)Oc3cccnc32)cc1 (stereo not drawn)
 : -20%, -0.4, 3, -6, u, -2
> CC/C(=N/Nc1cccc(Cl)c1)c1cnnc(SC)n1
 : 10%, 0.1, -1, -20, -8%[15.4 µM], 11

Entries of single compounds, quoted from the list. Values in the order: gsp antag, D2 ag, CtBP-E1A inh, D2 PAM, gsp agonist, Six1-Eya2 blk
Results for `COc1ccc(NC(=O)C[C@H]2C(=O)N(c3ccc(OC)cc3)C[C@@H]2C)cc1` → x, -0.6, -6, -4, -14%, 12
Results for `Cc1ccc(C(=O)Nc2cccc(NC(=O)c3cccnc3)c2)cc1` → 9%, -2.1, 2, -2, 8%, -4
Results for `COc1cc(C(C)=O)ccc1OCC(=O)Nc1cc(S(=O)(=O)N2CCOCC2)ccc1N1CCCC1` → -6%, 0.9, x, 3, 1%, 6
Results for `CC1CC(C)CN(c2ccc(S(=O)(=O)N3CCOCC3)cc2)C1` (stereo not drawn) → -1%, -6.6, 1, -11, 1%, -1
Results for `CCCN1Cc2cccc(C(N)=O)c2C1=O` → -10%, -1.0, 4, -11, 18%, -7
